Compound activity: PubChem, Broad Institute
HIV Env fusion = blocks HIV Env-driven cell-cell fusion | inhibition, % at 12.3 µM | HeLa-JRFL Env/CEM21 cell fusion, luciferase | 360,000 compounds, 1.1% hits;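 active = mean replicate inhibition score of at least 50 and every replicate individually at or above 50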;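 note: 0% = plate neutral controls and 100% = maraviroc near 300 nM; one replicate is shown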
UUG fidelity = yeast start codon fidelity modulation; S. cerevisiae UUG-firefly luciferase reporter, luminescence/redox ratio; AID 602363; activity score, % at 18.7 µM; 350,000 compounds, 0.13% hits;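 active = replicate mean at a twofold rise or more, about +100% in these data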;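 note: firefly luciferase made from a UUG start codon reports start codon fidelity; reporter light over untreated wells divided by growth signal over untreated wells; some hits fall short of that in this replicate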
Active calls of the source: *; [ ] = remark or other dose. A portion of the library; the hit share may differ from the screen's.

HIV Env fusion	UUG fidelity	smiles
-3[16.7 µM]	-10	CO[C@H]1CN(C)C(=O)c2ccc(NC(=O)c3ccccc3)cc2OC[C@@H](C)N(C)C[C@H]1C
-208[16.7 µM]	1	C[C@@H]1CN([C@@H](C)CO)C(=O)Cc2cc(NC(=O)Cc3ccccc3)ccc2O[C@@H]1CN(C)Cc1ccc(C(=O)Nc2ccccc2N)cc1
26[16.7 µM]	10	COc1ccc(S(=O)(=O)N(C)C[C@@H]2Oc3ccc(NC(=O)Nc4ccccc4)cc3CC(=O)N([C@H](C)CO)C[C@H]2C)cc1
6[16.7 µM]	-7	CNC(=O)C[C@H]1CC[C@@H]2[C@H](COc3ccc(NC(=O)c4cnccn4)cc3C(=O)N2C)O1
-5[16.7 µM]	-3	C[C@@H]1CCCCO[C@H](CN(C)Cc2ccc3c(c2)OCO3)[C@@H](C)CN([C@H](C)CO)C(=O)c2cc(NC(=O)CCCN(C)C)ccc2O1
59*[16.7 µM]	-12	C[C@H](CO)N1C[C@H](C)[C@H](CN(C)C(=O)Nc2ccc(C(F)(F)F)cc2)OCCCC[C@H](C)Oc2ccc(NS(=O)(=O)c3ccc(F)cc3)cc2C1=O
3[16.7 µM]	29	CC(C)NC(=O)Nc1ccc2c(c1)CC(=O)N([C@@H](C)CO)C[C@@H](C)[C@@H](CN(C)Cc1ccccc1)O2
-4[16.7 µM]	-3	C[C@@H]1CCCCO[C@@H](CN(C)S(C)(=O)=O)[C@H](C)CN([C@@H](C)CO)C(=O)c2cc(N(C)C)ccc2O1
-21[16.7 µM]	-9	C[C@H](CO)N1C[C@H](C)[C@H](CN(C)CC2CC2)Oc2cc(C#Cc3ccccn3)ccc2S1(=O)=O
-2[16.7 µM]	-16	CS(=O)(=O)Nc1ccc2c(c1)[C@H]1C[C@@H](CC(=O)NCc3cccnc3)O[C@H](CO)[C@H]1O2
-9[16.7 µM]	-6	O=C(Cc1ccccn1)NCC[C@H]1CC[C@H](NS(=O)(=O)c2ccc(Cl)cc2)[C@@H](CO)O1
0[16.7 µM]	12	COc1ccccc1-c1cn(CC[C@H]2CC[C@H](NC(=O)CCN3CCCCC3)[C@H](CO)O2)nn1
12[16.7 µM]	10	CCCC#Cc1cnc2c(c1)C(=O)N([C@@H](C)CO)C[C@H](C)[C@@H](CN(C)C(=O)Nc1ccc(OC)cc1)O2
17[16.7 µM]	0	COc1ccc(NC(=O)Nc2ccc3c(c2)C(=O)N([C@H](C)CO)C[C@H](C)[C@@H](CN(C)S(=O)(=O)c2c(C)noc2C)OCCCC[C@@H](C)O3)cc1
2[16.7 µM]	-1	C[C@H](CO)N1C[C@H](C)[C@@H](CN(C)Cc2ccc(F)cc2)Oc2ncc(-c3cccc(C#N)c3)cc2C1=O
18[16.7 µM]	-11	C[C@H]1CN([C@@H](C)CO)C(=O)c2cc(NC(=O)Nc3ccc4c(c3)OCO4)ccc2O[C@H]1CN(C)S(=O)(=O)c1ccccc1
-29[16.7 µM]	6	CCCNC(=O)N(C)C[C@H]1Oc2cc(C3=CCCCC3)ccc2S(=O)(=O)N([C@H](C)CO)C[C@H]1C
5[16.7 µM]	8	C/C=C/c1cnc2c(c1)C(=O)N([C@@H](C)CO)C[C@@H](C)[C@H](CN(C)C(=O)Nc1ccc(OC)cc1)O2
-7[16.7 µM]	-2	COCC(=O)N(C)C[C@H]1Oc2cc(-c3ccc(F)cc3)ccc2S(=O)(=O)N([C@@H](C)CO)C[C@@H]1C
10[16.7 µM]	-9	Cc1ccc(S(=O)(=O)N[C@H]2CC[C@H](CCNC(=O)C3CCCCC3)O[C@@H]2CO)cc1
23[16.7 µM]	-7	COc1ccc(CN(C)C[C@H]2Oc3ccc(NC(=O)Nc4cccc5ccccc45)cc3CC(=O)N([C@@H](C)CO)C[C@@H]2C)cc1
-9[16.7 µM]	6	C[C@@H]1CN([C@@H](C)CO)C(=O)Cc2cc(NC(=O)Cc3ccccc3)ccc2O[C@@H]1CN(C)CC1CC1
-1[16.7 µM]	18	Cc1ccc(NC(=O)Nc2ccc3c(c2)C(=O)N(C)[C@@H]2CC[C@@H](CC(=O)O)O[C@@H]2CO3)cc1
10[16.7 µM]	0	COc1ccc(S(=O)(=O)Nc2ccc3c(c2)C(=O)N([C@H](C)CO)C[C@H](C)[C@H](CN(C)Cc2ccncc2)OCCCC[C@H](C)O3)cc1
-19[16.7 µM]	10	Cc1noc(C)c1S(=O)(=O)N(C)C[C@@H]1Oc2ccc(NS(=O)(=O)c3ccc(Cl)cc3)cc2CC(=O)N([C@@H](C)CO)C[C@H]1C

Laid out differently: results already given.
Fields – HIV Env fusion | UUG fidelity
COc1ccc(CN(C)C[C@H]2Oc3ccc(NC(=O)Nc4cccc5ccccc45)cc3CC(=O)N([C@@H](C)CO)C[C@@H]2C)cc1
→ 23[16.7 µM] | -7
C[C@@H]1CN([C@@H](C)CO)C(=O)Cc2cc(NC(=O)Cc3ccccc3)ccc2O[C@@H]1CN(C)CC1CC1
→ -9[16.7 µM] | 6

The results go on.
HIV Env fusion	UUG fidelity	smiles
-7[16.7 µM]	9	NC(=O)[C@@H]1[C@H]2C(=O)O[C@H](c3ccccc3)[C@H](c3ccccc3)N2[C@H](c2ccc(OCCO)cc2)[C@@]12C(=O)Nc1ccc(C#CC3=CCCCC3)cc12
-16[16.7 µM]	-29	C[C@@H]1CCCCO[C@@H](CN(C)C(=O)NC2CCCCC2)[C@@H](C)CN([C@H](C)CO)C(=O)c2cc(NC(=O)Nc3ccc(C(F)(F)F)cc3)ccc2O1
-6[16.7 µM]	-10	COc1ccccc1CNC(=O)C[C@@H]1CC[C@H](NC(=O)CC2CC2)[C@H](CO)O1
11[16.7 µM]	-11	CN(C)C(=O)C[C@@H]1C[C@@H]2c3cc(NC(=O)Nc4ccccc4F)ccc3O[C@@H]2[C@H](CO)O1
6[16.7 µM]	-6	CCCC#Cc1cnc2c(c1)C(=O)N([C@@H](C)CO)C[C@@H](C)[C@H](CN(C)C(=O)c1cccnc1)O2
-14[16.7 µM]	-3	C[C@@H]1CN([C@H](C)CO)C(=O)c2cc(-c3cncnc3)cnc2O[C@@H]1CN(C)Cc1cncnc1
15[16.7 µM]	3	C[C@H](CO)N1C[C@H](C)[C@H](CN(C)Cc2ccc(C(F)(F)F)cc2)Oc2c(NC(=O)NC3CCCCC3)cccc2C1=O
-10[16.7 µM]	22	CNC[C@@H]1OCCCC[C@H](C)Oc2ccc(NC(=O)CCC(F)(F)F)cc2C(=O)N([C@@H](C)CO)C[C@@H]1C
11[16.7 µM]	11	COCC#Cc1ccc2c(c1)O[C@H](CN(C)C(=O)CC1CC1)[C@H](C)CN([C@H](C)CO)S2(=O)=O
-15[16.7 µM]	-9	COc1ccc(S(=O)(=O)Nc2ccc3c(c2)C(=O)N([C@@H](C)CO)C[C@@H](C)[C@@H](CN(C)C(=O)Cc2ccccc2)OCCCC[C@H](C)O3)cc1
8[16.7 µM]	-5	O=C(C[C@@H]1C=C[C@H](NC(=O)C2CC2)[C@H](CO)O1)NCc1ccncc1
7[16.7 µM]	0	COc1ccccc1-c1ccc([C@@H]2[C@@H](CO)N(C(=O)C3CCOCC3)[C@H]2C#N)cc1
-5[16.7 µM]	-5	CCCC#Cc1cnc2c(c1)C(=O)N([C@@H](C)CO)C[C@H](C)[C@H](CN(C)C(=O)Cc1ccncc1)O2
10[16.7 µM]	-14	C[C@H]1CN([C@@H](C)CO)C(=O)Cc2cc(NS(C)(=O)=O)ccc2O[C@@H]1CN(C)S(=O)(=O)c1ccc(Cl)cc1
16[16.7 µM]	1	C[C@@H]1CN([C@@H](C)CO)C(=O)c2cc(NC(=O)Nc3ccc(F)cc3)ccc2O[C@H]1CN(C)CC1CCCCC1
-17[16.7 µM]	-11	COc1cccc(CNC(=O)C[C@@H]2CC[C@H]3[C@@H](COc4ccc(NC(C)=O)cc4C(=O)N3C)O2)c1
-4[16.7 µM]	9	O=C(CCN1CCCCC1)N[C@H]1CC[C@H](CCNS(=O)(=O)c2ccc(Cl)cc2)O[C@H]1CO
-24[16.7 µM]	-7	C[C@@H]1CCCCO[C@H](CN(C)S(=O)(=O)c2ccccc2)[C@@H](C)CN([C@H](C)CO)C(=O)c2cc(NC(=O)Nc3ccc4c(c3)OCO4)ccc2O1
15[16.7 µM]	-16	C[C@@H]1CCCCO[C@@H](CN(C)C(=O)Nc2ccc3c(c2)OCO3)[C@H](C)CN([C@H](C)CO)C(=O)c2cc(NS(=O)(=O)c3ccc(Cl)cc3)ccc2O1
11[16.7 µM]	-8	C[C@@H]1CN([C@H](C)CO)C(=O)c2cc(-c3cccc(C(=O)N(C)C)c3)cnc2O[C@@H]1CN(C)S(=O)(=O)c1cccc(F)c1
27[16.7 µM]	-8	COc1cccc(CNC(=O)C[C@@H]2C=C[C@H](NC(=O)C3CCOCC3)[C@@H](CO)O2)c1
-61[16.7 µM]	-10	C[C@@H]1CCCCO[C@H](CN(C)Cc2ccncc2)[C@H](C)CN([C@H](C)CO)C(=O)c2cc(NC(=O)Cc3ccccc3)ccc2O1
-14[16.7 µM]	-6	C[C@@H]1CCCCO[C@@H](CN(C)S(=O)(=O)c2ccc(F)cc2)[C@H](C)CN([C@@H](C)CO)C(=O)c2cc(N(C)C)ccc2O1
-6[16.7 µM]	-10	CC(C)C#Cc1cnc2c(c1)C(=O)N([C@@H](C)CO)C[C@@H](C)[C@@H](CN(C)C(=O)Cc1ccccn1)O2
-25[16.7 µM]	45	C[C@@H]1CCCCO[C@@H](CN(C)C(=O)CCCN(C)C)[C@@H](C)CN([C@H](C)CO)C(=O)c2cc(NC(=O)Nc3cccc4ccccc34)ccc2O1

HIV Env fusion	UUG fidelity	smiles
-18[16.7 µM]	24	C[C@H](O)C#Cc1ccc2c(c1)O[C@H](CN(C)C(=O)C1CCC1)[C@H](C)CN([C@H](C)CO)S2(=O)=O
-13[16.7 µM]	6	COc1cccc(S(=O)(=O)N[C@@H]2CC[C@@H](CCNC(=O)Nc3cc(F)ccc3F)O[C@H]2CO)c1
-12[16.7 µM]	-15	C[C@H]1CN([C@@H](C)CO)C(=O)c2cc(C#CCN(C)C)cnc2O[C@@H]1CN(C)C(=O)c1cccnc1
-16[16.7 µM]	64	COc1ccc(CN(C)C[C@@H]2Oc3ccc(NC(=O)C4CCCCC4)cc3CC(=O)N([C@@H](C)CO)C[C@H]2C)cc1
-15[16.7 µM]	8	Cc1noc(C)c1NC(=O)N(C)C[C@@H]1OCCCC[C@H](C)Oc2ccc(NS(C)(=O)=O)cc2C(=O)N([C@H](C)CO)C[C@@H]1C
-4[16.7 µM]	0	O=C(Nc1cccc(Cl)c1)N[C@@H]1CC[C@@H](CCNC(=O)C2CCCC2)O[C@H]1CO
15	2	CCOC(=O)N(C)C[C@H]1OCc2cnnn2CCCC(=O)N([C@H](C)CO)C[C@@H]1C
7[16.7 µM]	-9	COc1ccc(S(=O)(=O)N(C)C[C@H]2OCCCC[C@H](C)Oc3ccc(NC(=O)Nc4ccc5c(c4)OCO5)cc3C(=O)N([C@H](C)CO)C[C@H]2C)cc1
30[16.7 µM]	-10	Cc1ccc(S(=O)(=O)N(C)C[C@H]2Oc3ccc(NC(=O)Cc4ccccc4)cc3CC(=O)N([C@H](C)CO)C[C@H]2C)cc1
-1[16.7 µM]	3	O=C1O[C@@H](c2ccccc2)[C@@H](c2ccccc2)N2[C@@H](c3ccc(O)cc3)[C@]3(C(=O)Nc4ccc(C#CCCO)cc43)[C@@H](C(=O)NC[C@H](O)c3ccccc3)[C@H]12
-6[16.7 µM]	1	C[C@@H]1CN([C@@H](C)CO)C(=O)c2cccc(NS(=O)(=O)c3ccc(Cl)cc3)c2O[C@@H]1CN(C)C(=O)Nc1ccc(F)cc1
-42[16.7 µM]	0	C[C@H]1CN([C@@H](C)CO)S(=O)(=O)c2ccc(-c3cccc(C(=O)N(C)C)c3)cc2O[C@H]1CN(C)C(=O)Nc1ccc(F)cc1
-9[16.7 µM]	2	CCC(=O)N(C)C[C@@H]1Oc2cc(C#CC3(O)CCCC3)ccc2S(=O)(=O)N([C@H](C)CO)C[C@@H]1C
-18[16.7 µM]	4	C[C@@H]1CN([C@H](C)CO)C(=O)Cc2cc(NC(=O)C3CCCCC3)ccc2O[C@@H]1CN(C)Cc1ccc(Cl)c(Cl)c1
-15[16.7 µM]	-31	C[C@H]1CN([C@@H](C)CO)C(=O)c2cc(C#Cc3ccccc3)cnc2O[C@H]1CN(C)Cc1ccccn1
-5[16.7 µM]	-9	O=C(C[C@@H]1C=C[C@H](NC(=O)C2CC2)[C@H](CO)O1)NCCCN1CCOCC1
12[16.7 µM]	16	COc1ccc(S(=O)(=O)Nc2ccc3c(c2)CC(=O)N([C@@H](C)CO)C[C@H](C)[C@H](CN(C)C(=O)Nc2ccccc2)O3)cc1
-1[16.7 µM]	3	CCCC#Cc1cnc2c(c1)C(=O)N([C@@H](C)CO)C[C@H](C)[C@H](CN(C)C(=O)Cc1ccccc1)O2

4 of these compounds, reformatted:
Each structure is followed by: HIV Env fusion	UUG fidelity
COc1ccc(S(=O)(=O)N(C)C[C@H]2OCCCC[C@H](C)Oc3ccc(NC(=O)Nc4ccc5c(c4)OCO5)cc3C(=O)N([C@H](C)CO)C[C@H]2C)cc1
  7[16.7 µM]	-9
Cc1ccc(S(=O)(=O)N(C)C[C@H]2Oc3ccc(NC(=O)Cc4ccccc4)cc3CC(=O)N([C@H](C)CO)C[C@H]2C)cc1
  30[16.7 µM]	-10
O=C1O[C@@H](c2ccccc2)[C@@H](c2ccccc2)N2[C@@H](c3ccc(O)cc3)[C@]3(C(=O)Nc4ccc(C#CCCO)cc43)[C@@H](C(=O)NC[C@H](O)c3ccccc3)[C@H]12
  -1[16.7 µM]	3
C[C@@H]1CN([C@@H](C)CO)C(=O)c2cccc(NS(=O)(=O)c3ccc(Cl)cc3)c2O[C@@H]1CN(C)C(=O)Nc1ccc(F)cc1
  -6[16.7 µM]	1
